Source: PubChem (several laboratories)
A1 inh – inhibitors of the anti-apoptotic protein A1, read as caspase activation. actives 0.066% (n = 330,000). MEF A1-2A-BIM cells, Caspase-Glo 3/7 luminescence, 3 h; percent of clofoctol response, vehicle zero. AID 2462. caspase activation, % (test concentration not listed);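 active = over half of replicate activation scores above 10%, or exactly half above 10 with the replicate mean above 10; inconclusive = replicate mean below 10 yet half the replicates above 10; inactive = over half of replicates below 10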;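 note: wells of about 30 µL received 50 nL stock; many hits fall short of the cut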
MLL AF4-AF9 inh – inhibitors of human MLL-AF4/AF9 interaction | P42568 | AlphaScreen, biotin-AF4 peptide binding to FLAG-AF9 | inhibition, % at 10 µM | actives 0.47% (n = 350,000) | AID 651704;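 active = every replicate reaching a set inhibition limit, whatever the replicate mean, cut at about 25% in these data; inconclusive = mean inhibition reaches that limit but some replicates miss it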;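 note: 0% = plate neutral control median and 100% = total signal loss; the record names both 10 and 1 µM as test concentration; the first replicate is given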
Target sequence (P42568 whole entry, looked up): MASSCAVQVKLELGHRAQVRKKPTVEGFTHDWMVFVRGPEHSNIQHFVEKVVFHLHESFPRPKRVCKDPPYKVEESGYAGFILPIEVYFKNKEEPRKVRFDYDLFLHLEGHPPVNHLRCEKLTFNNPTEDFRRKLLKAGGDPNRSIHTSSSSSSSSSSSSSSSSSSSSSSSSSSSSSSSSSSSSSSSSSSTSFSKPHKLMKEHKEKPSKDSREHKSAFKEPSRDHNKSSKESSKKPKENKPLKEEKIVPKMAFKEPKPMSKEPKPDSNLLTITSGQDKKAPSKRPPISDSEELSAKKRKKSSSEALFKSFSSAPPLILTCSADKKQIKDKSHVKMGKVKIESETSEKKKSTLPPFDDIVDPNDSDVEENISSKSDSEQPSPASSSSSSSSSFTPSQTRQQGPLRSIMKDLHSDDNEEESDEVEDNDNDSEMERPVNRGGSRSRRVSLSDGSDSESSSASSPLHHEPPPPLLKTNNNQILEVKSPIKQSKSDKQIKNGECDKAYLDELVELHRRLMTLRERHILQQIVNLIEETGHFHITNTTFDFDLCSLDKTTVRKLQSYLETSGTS
RanGTP-Imp inh – disruptors of Ran-importin-beta complex formation – biochemical, FRET, CFP-Ran, YFP-importin-beta, homogeneous, primary screen | cell-free CFP-Ran/YFP-importin-beta FRET ratio | inhibition, % (test concentration not listed) | actives 1.1% (n = 300,000) | AID 2216;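 active = most replicates above 15%; inconclusive = exactly half above 15%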;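 note: 0% = DMSO wells and 100% = Ran loaded with GDP instead of GTP; wells of about 40 µL received 100 nL stock; the first replicate is given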
T cruzi inh – blocks replication of Trypanosoma cruzi; inhibition, % (no concentration beside the values); T. cruzi beta-gal in NIH3T3, luminescence, 90 h; actives 1.4% (n = 300,000);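 active = mean inhibition across valid replicates above about 55%, limit read from the data; inconclusive = mean below that limit but half or more replicates reach it; inactive = mean below it, under half of replicates reach it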;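 note: signal also drops with host cell toxicity which is not excluded here; 0% = plate median of DMSO wells and 100% = zero luminescence signal; higher percent means less beta-gal luminescence so fewer parasites; stock transfer was 50 nL into about 50 µL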
Beta apoptosis – beta cell apoptosis inhibition; INS-1E cytokine-induced death, ATP luminescence, 48 h; percent of positive-control rescue, neutral wells zero; protection from apoptosis, % (no concentration beside the values); actives 0.8% (n = 300,000); AID 435005;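 active = all replicates at 75% or more, or half of them and the mean; inconclusive = half reach 75% but not the mean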;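 note: 0% = cytokine-treated negative control wells and 100% = positive control rescue; higher means more ATP so stronger rescue from cytokine killing; wells of about 40 µL received 100 nL stock; the first replicate is given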
Ecoli rRNA inh – inhibits bacterial ribosomal RNA function over humanized ribosomes. actives 1.6% (n = 350,000). E. coli WT GFP vs humanized-ribosome RFP mutants, fluorescence, 24 h; active compounds read low; DMSO median 0, no signal -100. GFP signal change (wild-type ribosome), % (concentration not given with the values);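 active = significant combined selectivity score with lowered wild-type GFP, culture density cut under 30%, mutant RFP and density less affected; inactive = any of these conditions unmet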; note: one replicate is shown; some compounds called inactive have numbers as strong as hits
Calb FLC – C. albicans growth modulation with fluconazole; actives 0.57% (n = 300,000); AID 1979; C. albicans CaCi-2 (fluconazole-resistant clinical isolate) + fluconazole, Alamar Blue growth, 48 h; growth inhibition, % (concentration not given with the values);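 active = most replicates above 75%; inconclusive = exactly half above 75%; inactive = most below 75%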;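 note: all wells also contain fluconazole at 8 µg/ml as a sub-toxic cotreatment; 0% = median of DMSO wells and 100% = median of geldanamycin control wells; wells of about 8 µL received 7.5 nL stock; the first replicate is given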
Vif A3G – inhibitors of Vif binding to APOBEC3G peptide, primary screen, biochemical, TR-FRET, GST-Vif 1-94, biotin-A3G peptide, dose response retest (AID 1117319); TR-FRET GST-Vif / biotin-A3G peptide binding; higher % means a stronger effect; test concentration not given here; strong numbers were not always called active; inhibition, %; hits with a dose series show IC50 in µM; actives 0.57% (n = 260,000);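 active = above the screen mean plus three standard deviations and confirmed in dose response; inconclusive = results disagree or hit not tested in dose response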;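 note: Vif residues 1-94 fused to GST binding biotinylated APOBEC3G peptide 110-148; 0% = full assay without inhibitor and 100% = GST in place of GST-Vif; retest series ran down from 100 µM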
Ecoli rRNA inh OD600 – also measured in Ecoli rRNA inh; calls as there; OD600 change, %; measured here: OD600 growth;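 optical density of the mix in the first replicate; 0 = DMSO median and -100 = no signal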
Ecoli rRNA inh RFP – also measured in Ecoli rRNA inh; calls as there; RFP signal change, %; measured here: RFP humanized mutant strains;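 first replicate; 0 = DMSO median and -100 = no signal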
The depositor's hits bear a star; ? = inconclusive; · = not tested or not shown. Only part of the results is shown; rates above refer to the full screens.

SMILES | A1 inh | MLL AF4-AF9 inh | RanGTP-Imp inh | T cruzi inh | Beta apoptosis | Ecoli rRNA inh | Ecoli rRNA inh OD600 | Ecoli rRNA inh RFP | Calb FLC | Vif A3G
Cc1ccc(CNC(=O)c2ccccc2N)cc1 | 0.0 | · | -1.7 | -3 | -10 | · | · | · | -6 | 14%
COc1ccccc1NC(=O)CCN1C(=O)C2C3CCC(C3)C2C1=O (stereo unspecified) | 0.2 | -2.4 | · | -4 | -1 | 7 | 16 | 2.5 | · | ·
CC(C)NC(=O)C1CCN(C2CCN(Cc3ccc4cccc(F)c4n3)CC2)CC1 | 0.8 | 11 | 9.1 | 9 | -3 | 6 | 1 | -4.7 | 9 | ·
CCCOc1ccc(-c2cn3ccccc3n2)cc1 | 0.4 | 1.9 | 2.1 | · | 22 | -24 | -26 | -3.8 | -23 | -14%
CCN(Cc1ccccc1)C(=O)COC(=O)c1cc(Cl)nc(Cl)c1 | 0.2 | 3.6 | -0.1 | -13 | 6 | -35* | -14* | 3.3* | -9 | ·
Cc1cc(C)nc(SCC(=O)N/N=C\C(Br)=C\c2ccccc2)n1 | 0.3 | -4.3 | 6.0 | -55 | 3 | -5 | -10 | -0.6 | -27 | ·
CCOC(=O)C1=C(N)c2ccccc2CC1C1CCCC1 (stereo unspecified) | -1.1 | -1.9 | 1.9 | 7 | -2 | -7 | -2 | -2.9 | 5 | 2%
Cc1ccc(C(OCC(O)CNC(CO)C(O)c2ccc([N+](=O)[O-])cc2)c2ccccc2)cc1 (stereo unspecified) | -0.1 | 13 | 1.1 | 13 | -1 | -67 | -77 | -19 | 2 | ?
O=C(COc1ccc(Br)cc1)NCCO | 0.5 | 4.1 | 7.3 | -1 | 3 | 9 | 3 | -4.5 | -3 | -8%
O=C(O)/C=C/c1cccnc1 | 1.2 | 4.1 | 3.8 | -10 | 0 | 5 | 9 | 0.0 | 1 | ·
CC(Sc1nnc2ccccn12)C(N)=O (stereo unspecified) | 1.4 | -3.6 | 4.4 | -15 | 0 | 25 | 16 | -2.9 | -30 | ·
Cc1sc2nc(SCCO)n(-c3ccccc3)c(=O)c2c1C | 1.7 | 1.6 | -1.2 | 5 | -10 | 4 | 8 | -0.2 | -5 | ·
Cc1cc(C)c(-c2csc(NC(=O)C3=NN(c4ccccc4)C(=O)CC3)n2)c(C)c1 | 0.3 | 3.5 | · | 1 | 34 | 3 | 2 | -1.4 | · | 26%
Cc1ccccc1CN(c1ccc(C(=O)N/N=C/c2ccc(OCC(N)=O)cc2)cc1)S(C)(=O)=O | 0.4 | 1.1 | -2.0 | 10 | -6 | · | · | · | -3 | 31%
NS(=O)(=O)c1ccc(NC(=S)NCc2ccccc2)cc1 | 0.6 | · | 5.3 | -24 | -4 | · | · | · | -2 | 9%
O=C(CSc1nnc(C2COc3ccccc3O2)o1)N1CCOCC1 (stereo unspecified) | 1.2 | · | -1.2 | -10 | 0 | · | · | · | -9 | 28%
C/C=C/C1=CC(=O)C[C@H](c2ccc(Cl)cc2)C1 | 0.3 | 3.3 | · | · | 0 | 6 | 5 | -12 | · | ·
Cc1cc(C)cc(NC2=CC(=O)CC(c3ccco3)C2)c1 (stereo unspecified) | 0.9 | · | -3.4 | 2 | -5 | · | · | · | 25 | >61µM*
COCCCn1nnnc1SCC(=O)Nc1nc(C)c(C)s1 | -0.2 | · | -1.5 | 5 | -3 | · | · | · | 1 | 13%
O=C(CSCc1ccccc1)Nc1ccc2c(c1)OCO2 | -1.1 | · | -1.3 | 13 | 3 | · | · | · | -8 | 27%
Cn1c(SCC(=O)N(C2CCCCC2)C2CCCCC2)nnc1-c1cccs1 | -0.1 | · | -2.2 | 1 | 23 | · | · | · | 23 | 1%
COc1ccc(-c2nc(CS(=O)CC(=O)NCc3ccc4c(c3)OCO4)c(C)o2)cc1OC (stereo unspecified) | -0.1 | -8.3 | 6.5 | 10 | 2 | 4 | 9 | 0.9 | -28 | ·
COc1cc(/C=C2/C(=O)NN(c3ccc(F)cc3)C2=O)cc(Cl)c1O | 0.5 | -5.0 | ? | 2 | -5 | 5 | 10 | 0.6 | -18 | 4%
COc1ccc(CNC(=O)Cc2c(C(=O)O)[nH]c3ccccc23)cc1 | -0.2 | · | 3.0 | -10 | -4 | · | · | · | 12 | -5%
CNC(=S)Nc1ccc(OC)c(OC)c1 | 0.0 | · | -0.6 | -6 | -4 | · | · | · | 3 | 17%

Further results
SMILES | A1 inh | MLL AF4-AF9 inh | RanGTP-Imp inh | T cruzi inh | Beta apoptosis | Ecoli rRNA inh | Ecoli rRNA inh OD600 | Ecoli rRNA inh RFP | Calb FLC | Vif A3G
O=C(O)CCC(=O)OCCc1cc2ccccc2c(=O)o1 | 0.4 | 2.3 | · | · | -12 | 2 | -1 | -8.1 | · | ·
Cn1c(Cn2c(C(F)(F)F)nc3ccccc32)nc2ccccc21 | 1.0 | · | -2.3 | 9 | -4 | · | · | · | -6 | -1%
COc1ccc(NC(=O)[C@H](C)NC(=O)C2CCN(S(=O)(=O)c3ccc(C)cc3)CC2)cc1OC | 0.4 | -1.6 | 7.2 | -9 | 2 | 2 | 9 | -2.1 | 6 | ·
CCOC(=O)COc1nc(N(C)C)nc(N(C)C)n1 | 0.8 | · | 6.1 | 0 | 1 | · | · | · | 5 | -6%
CCN(CC)CCNC(=O)c1cc(Nc2ccc(OC)c(OC)c2)nc2ccccc12 | 1.0 | 22 | -4.2 | -9 | 2 | -1 | 6 | -1.4 | 0 | 2%
NC(=O)c1ccc(SCC(=O)NC2CCCCC2)c([N+](=O)[O-])c1 | 0.4 | -1.4 | -1.0 | 4 | -6 | 22 | 12 | 3.7 | -14 | 2%
CC(C)(C)CNC(=O)c1cccc2c1C(=O)c1ccc(N3CCCC3)cc1S2(=O)=O | 0.9 | -0.5 | · | · | 2 | 10 | 0 | -6.6 | · | ·
CCCSc1nc(=O)n2cc(C)ccc2n1 | -0.5 | 6.0 | 0.7 | -41 | 4 | -4 | -6 | -6.9 | 2 | 1%
COc1ccc(NC(=O)CNC(=O)c2cccs2)cc1Cl | 1.0 | -16 | 0.3 | 1 | -3 | 3 | 8 | -5.6 | -4 | -11%
Cc1cc(C)c(NC2=CC(=O)CC(C)(C)C2)c(C#N)c1 | 0.5 | · | 3.2 | -15 | 1 | · | · | · | -1 | 6%
COc1ccc(OCc2nnc(SCC(=O)Nc3cccc(C(C)=O)c3)o2)cc1 | -0.2 | -7.0 | · | · | -5 | · | · | · | · | -14%
CCC(C)NC(C(=O)Nc1ccc(Cl)c([N+](=O)[O-])c1)c1ccccc1 (stereo unspecified) | -0.8 | · | 1.7 | 9 | -2 | · | · | · | 7 | ·
Cc1cccc(C)c1NC(=O)CN(C)C(=O)c1cccc(NS(=O)(=O)c2ccccc2)c1 | 2.3 | 0.4 | 1.6 | -8 | -1 | 8 | 18 | 1.6 | -13 | 5%
Cc1ncc(CN2CCN(C3CCCC3)C(CCO)C2)s1 (stereo unspecified) | -0.1 | -0.2 | 0.2 | -2 | -1 | 5 | 2 | -3.6 | 4 | -1%
COc1cccc(OC)c1NC(=O)CN(C)S(=O)(=O)c1ccc2c(c1)OCCO2 | 0.3 | -12 | -1.1 | 4 | -7 | 1 | 3 | 1.0 | 0 | -5%
Cc1cc(C)nc(/N=C(\N)Nc2ccc(F)c([N+](=O)[O-])c2)n1 | -1.0 | · | 2.4 | 2 | -20 | · | · | · | 9 | 7%
COc1ccc(-c2oc3cc(OC)c(O)c(OC)c3c(=O)c2OC)cc1O | -1.2 | 3.4 | -0.7 | 23 | 11 | -27 | -3 | -18 | 11 | 15%
CCOC(=O)c1c(C)n(-c2ccccc2)c2ccc(O)c(CN(C)C)c12 | -0.6 | 9.8 | 0.8 | 39 | 3 | -24 | -27 | -4.3 | 18 | -2%
CC(C)CNC(=O)C(=O)NCC1OCCCN1S(=O)(=O)c1cccs1 (stereo unspecified) | -0.8 | 0.5 | -0.1 | 6 | -3 | 5 | 3 | 2.6 | -22 | ·
CCCn1c2ccccc2c2nnc(SCCN3CCOCC3)nc21 | 0.1 | -0.4 | -1.3 | 10 | 2 | -14 | -6 | -8.8 | 8 | ·
CCC(C(=O)OCC(=O)Nc1cccc(S(=O)(=O)NC2=NCCCCC2)c1)c1ccccc1 (stereo unspecified) | -0.3 | · | -3.6 | 0 | -2 | · | · | · | ? | 2%
C=CCn1c(NC(=O)c2ccccc2Cl)c(C#N)c2nc3ccccc3nc21 | 1.5 | · | 124* | 0 | 14 | · | · | · | 2 | ?
CCOCC(=O)Nc1nc2ccc(C)cc2s1 | -5.5 | · | 0.7 | 3 | 0 | · | · | · | -20 | 17%
CC(C)c1cc(C(=O)N/N=C/C=C/c2ccccc2)n[nH]1 | 0.2 | · | -1.4 | 14 | 2 | · | · | · | -14 | ·
Cn1nnnc1SCC(=O)Nc1nc(-c2ccccc2)c(-c2ccccc2)o1 | 1.5 | · | -0.3 | -5 | -3 | · | · | · | 1 | 14%

(next part)
SMILES | A1 inh | MLL AF4-AF9 inh | RanGTP-Imp inh | T cruzi inh | Beta apoptosis | Ecoli rRNA inh | Ecoli rRNA inh OD600 | Ecoli rRNA inh RFP | Calb FLC | Vif A3G
CCc1nnc(N/N=C\c2ccc(OC(C)=O)c(OC)c2)n1N | -0.5 | -12 | -1.3 | -13 | · | 10 | 18 | -3.8 | 8 | 7%
Cc1ccc(C)c(NC(=O)/C(C#N)=C/c2ccc[nH]2)c1 | 0.4 | 0.8 | 1.8 | -1 | 2 | 5 | 2 | 1.3 | -21 | ·
O=C1c2ccccc2C(=O)C1c1ccc(Cl)cc1 | -1.0 | 1.0 | -5.1 | -10 | -5 | 7 | 2 | -4.4 | -8 | ·
Cc1cc(C)c2c(N)c(C(=O)N3CCCCCC3)sc2n1 | -0.9 | · | ? | -1 | -9 | · | · | · | 0 | 3%
Cn1c(SCC(=O)N2CCCC2)nnc1-c1cnccn1 | -0.4 | 0.9 | 0.1 | -11 | -12 | 11 | 8 | -1.9 | -9 | 3%
COc1ccc(N/C=C/C(=O)c2ccc(C)cc2)c([N+](=O)[O-])c1 | -4.9 | · | -1.8 | 10 | 6 | · | · | · | -4 | -4%
COc1ccc(N2CCN(C(=O)COc3ccc4c(C)cc(=O)oc4c3C)CC2)cc1 | 0.4 | 1.8 | 1.0 | -6 | 8 | 6 | -1 | 9.2 | -3 | 0%
COc1ccc(NC(=O)CN2C(=O)NC3(CCCCC3C)C2=O)cc1S(=O)(=O)N1CCOCC1 (stereo unspecified) | 0.2 | 1.7 | · | · | 0 | 8 | 5 | 1.7 | · | -2%
COc1cc(OC)cc(C(=O)NCC(=O)OCc2cc(=O)oc3cc(OC)ccc23)c1 | 0.9 | ? | -0.9 | -33 | 0 | -9 | -1 | -1.4 | 1 | -90%
